VDR inh: inhibitors of human vitamin D receptor | 400,000 compounds, 0.93% hits | VDR-SRC2-3 peptide fluorescence polarization, 2 h | AID 504847 | Potency, µM, for the others: max response, negative = inhibition, most hits filed as inhibitors; active means well fitted inhibition curve with a large enough effect; inconclusive means small, poorly fitted or top-dose-only effect, or another doubt; inactive means no such curve, though single readings can be large or run the other way; further: series mostly up to about 120 µM
Target sequence (P11473 whole entry, looked up): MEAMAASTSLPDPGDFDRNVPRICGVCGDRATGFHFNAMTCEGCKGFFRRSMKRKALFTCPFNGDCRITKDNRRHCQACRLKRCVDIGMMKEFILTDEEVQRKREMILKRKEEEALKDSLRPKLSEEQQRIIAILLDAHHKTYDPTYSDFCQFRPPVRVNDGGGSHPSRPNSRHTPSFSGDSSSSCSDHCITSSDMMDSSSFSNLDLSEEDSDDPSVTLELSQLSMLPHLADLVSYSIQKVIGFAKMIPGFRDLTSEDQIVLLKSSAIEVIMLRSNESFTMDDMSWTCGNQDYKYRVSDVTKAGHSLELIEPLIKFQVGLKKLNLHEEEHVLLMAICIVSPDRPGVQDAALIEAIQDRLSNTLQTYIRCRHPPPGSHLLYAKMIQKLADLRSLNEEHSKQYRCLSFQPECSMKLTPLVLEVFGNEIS
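Measured by FP: displacement of SRC2-3 coactivator peptide from VDR by library compounds, following a two-hour ambient incubation.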
Numbers without * were called inactive; ? = inconclusive; & = joins results of further samples; [ ] = another dose, or the depositor's remark. On the % scale 0 is the no-effect control and ±100 the full control effect; potency means the concentration at half of the fitted maximal effect. A portion of the library, so the mix of outcomes need not match the whole.

Structure	VDR inh
COc1ccccc1NC1=NC(CO)(CO)CS1	-19%
c1ccc(CSc2ccc(-c3ccco3)nn2)cc1	-25%
CN(Cc1ccccc1)C(=O)N[C@@H](Cc1ccccc1)C(=O)O	-5%
COc1cc(/C=C2/C(=O)ON=C2C)ccc1OCc1cccc(F)c1	25µM*
COc1cccc(C(=O)NCCC2=CCCCC2)c1	3%
Cc1cccc(Cn2cnc3c(sc4nc(C)cc(C)c43)c2=O)c1	8%
CC(=O)Oc1ccc(N2C(=O)C3C4C=CC(CC4)C3C2=O)cc1[N+](=O)[O-] (stereo not drawn)	-17%
Cc1ccc(S(=O)(=O)N2CCN(c3cc(-c4cccs4)nc4ccccc34)CC2)cc1	-19%
Cc1ccc(CCNC(=O)c2ccc3c(c2)N(Cc2cccc(F)c2)C(=O)c2ccccc2S3)cc1	2%
CCN(CC)CCNC(=O)C1(O)c2cc(Br)ccc2NC(=O)N1c1c(F)cccc1F (stereo not drawn)	9%
Cc1ccc(C(=O)NCc2ccc(F)cc2)cc1NC1=NC2CS(=O)(=O)CC2S1 (stereo not drawn)	-6%
COc1ccc(N2CCN(CCNC(=O)c3ccc(NC(=O)C4CCCO4)cc3)CC2)cc1 (stereo not drawn)	-11%
C#CCSc1nnc(CNS(=O)(=O)c2ccc(Br)cc2)n1C	14%
CCOc1ccc(-n2nc(CO)c(C(=O)NCCCc3ccccc3)n2)cc1	-3%
COc1ccc2nc(SCC(=O)NCc3ccc(F)cc3)[nH]c2c1	21%
CCN(CC)C(=O)CC(c1ccc(F)cc1)c1ccco1 (stereo not drawn)	-24%
COc1ccccc1NC(=O)CSCc1cc(=O)c2cccc(Cl)c2[nH]1	17%
O=C(NCC1CCN(Cc2cccc(Cl)c2)CC1)Nc1cc(Cl)ccc1Cl	-5%
O=C(O)c1cccc(Cn2c(Cl)c(/C=N/NC(=O)c3ccccc3Cl)sc2=O)c1	-5%
CCOC(=O)c1[nH]c(C)c(C(=O)Nc2ccccc2C)c1C	-16%

4 records drawn at random from those above:
Structure	VDR inh
Cc1ccc(C(=O)NCc2ccc(F)cc2)cc1NC1=NC2CS(=O)(=O)CC2S1 (stereo not drawn)	-6%
COc1ccccc1NC1=NC(CO)(CO)CS1	-19%
COc1ccc2nc(SCC(=O)NCc3ccc(F)cc3)[nH]c2c1	21%
CC(=O)Oc1ccc(N2C(=O)C3C4C=CC(CC4)C3C2=O)cc1[N+](=O)[O-] (stereo not drawn)	-17%

Carrying on:
Structure	VDR inh
CN(C)CCCOC(=O)C1c2ccccc2Oc2ccccc21	8%
CSc1ncc(Cl)c(C(=O)Nc2ccc(NC(C)=O)cc2)n1	-3%&5%
CCc1cccc(CC)c1NC(=O)CO/N=C(\N)CC(=O)NC1CCCCC1	7%
Cc1ccc2cc3cc(C(=O)N4CCN(c5ccccc5)CC4)sc3nc2c1	-11%
CC(C)CNC(=O)/C=C/C(=O)O	-14%
COC(=O)C(=N/Nc1ccccc1C(=O)OC)/C(C)=N/O	-3%
Cc1ccc(-c2noc(CN3CCCCC3)n2)cc1	-4%
O=Cc1c(NCc2ccco2)nc2ccccn2c1=O	0%
Cc1cccc(C)c1NC(=O)C(=O)NCCOc1ccc(Cl)cc1	2%
COc1ccc(C2CC(c3c(-c4ccccc4)c4cc(Cl)ccc4[nH]c3=O)=NN2C(=O)CCC(=O)O)cc1 (stereo not drawn)	-13%
Cc1cc(C(N)=O)nn1-c1c(Cl)cc(Cl)cc1Cl	2%
Cc1ccc(N2CCN(C(=O)c3ccccc3F)CC2)c(C)c1	-10%
CCOC(=O)Cc1csc(NC(=O)CC)n1	-3%
COC(=O)c1ccc(C2C(C(C)=O)=C(O)C(=O)N2CCO)cc1 (stereo not drawn)	-3%
O=C(CCN1CCN(S(=O)(=O)c2ccc(Cl)cc2)CC1)Nc1ccccc1F	24%
COc1cc(C(c2sc3nc(C)nn3c2O)N2CCC3(CC2)OCCO3)cc(OC)c1OC (stereo not drawn)	-26%
CCc1c(C(=O)NCc2ccc3c(c2)OCO3)[nH]c(C)c1C(C)=O	15%
COc1ccc(Cc2noc(CN3CCC(c4ccncc4)CC3)n2)cc1OC	-17%
O=C(Nc1ccc(O)cc1C(=O)O)c1cccs1	6%
O=c1ccc(S(=O)(=O)N2CCCC2)cn1Cc1ccc(Cl)cc1Cl	-21%

Entries from the list above containing bromine:
Structure	VDR inh
CCN(CC)CCNC(=O)C1(O)c2cc(Br)ccc2NC(=O)N1c1c(F)cccc1F (stereo not drawn)	9%
C#CCSc1nnc(CNS(=O)(=O)c2ccc(Br)cc2)n1C	14%

The listing continues:
Structure	VDR inh
COc1ccc(S(=O)(=O)N2CCN(CC(=O)N3CCOCC3)CC2)cc1OC	-4%
COC(=O)c1c(SC)nc2ccccc2c1OCc1ccc(Br)cc1	-3%
CCSc1nnc(SCC(=O)Nc2cc(C)on2)s1	35%[activator]
C[C@H]1CN([C@@H](C)CO)C(=O)c2cccc(NC(=O)Nc3ccc(C(F)(F)F)cc3)c2O[C@H]1CN(C)C	-7%
Cc1nnc(SCC(=O)Nc2nccs2)n1C(C)C	-12%
O=C(CNC(=O)c1ccc(Br)o1)NCC(=O)OCc1ccccc1	8%
Cc1cc(SCC#N)n2nc(C)c(-c3ccccc3)c2n1	-5%
CC(C)Cn1cnc2c(Sc3c([N+](=O)[O-])ncn3C)nc(N)nc21	10%
C[C@H](NC(=O)N1CCn2c1nc1ccccc12)C(=O)NCCc1ccccc1	-15%
CCC1CN(C(=O)Nc2ccccc2C(F)(F)F)c2ccccc2S1 (stereo not drawn)	19%
CCCCCCCCCc1nc(N)n[nH]1	-5%
O=c1cc(CSc2ccc(Cl)cc2)[nH]c2[nH]n(-c3ccccc3)c(=O)c12	?
O=C(c1ccc(F)cc1)N1CCCCC(Sc2nnc3ccccn23)C1=O (stereo not drawn)	2%
CCn1c(SCc2nc3ccccc3c(=O)[nH]2)nc2ccccc2c1=O	-15%
O=C(Nc1ccc2nc3n(c(=O)c2c1)CCCCC3)C(=O)N1CCN(c2ccc(F)cc2)CC1	?
O=C(OCc1nc2ccsc2c(=O)[nH]1)c1ccc(Cl)nc1	4%
CC(=O)c1ccc(N2CCN(C(=O)c3noc4c3CSc3ccccc3-4)CC2)cc1	-20%
CCN(CC(=O)Nc1ccccc1C(F)(F)F)C(=O)CSCC(=O)Nc1cc(C)on1	14%
CC[C@H]1OC(=O)[C@H](C)[C@@H](O[C@H]2C[C@@](C)(OC)[C@@H](O)[C@H](C)O2)[C@H](C)[C@@H](O[C@@H]2O[C@H](C)C[C@H](N(C)C)[C@H]2O)[C@](C)(O)C[C@@H](C)CN(C)[C@H](C)[C@@H](O)[C@]1(C)O	3%&-13%
COc1ccc(C2=CC(=O)CC(C)(C)C2)cc1OC	-8%
COc1ccc(CC(=O)N2CCNC2=O)cc1	-1%
Cc1cccc(NC(=O)Cn2nnc3ccccc32)c1	6%
Cc1ccc(NC(=O)/C=C/c2ccccc2Cl)cc1Cl	2%
Cc1cccc(-n2ccc(=O)c(C(=O)Nc3ccc(S(=O)(=O)Nc4nccc(C)n4)cc3)n2)c1	2%
O=C(O)c1cc2c(cn1)[nH]c1ccccc12	-14%
O=C(COc1ccc2c(c1)OCO2)Nc1ccc(Cl)cn1	0%
CC1(C)Cc2c(sc3nc(-c4ccccc4Cl)n(N)c(=O)c23)CO1	7%
Cc1ccc(-c2cc(C(=O)OCC(=O)NC3CC3)c3ccccc3n2)cc1	-5%
Cc1nn(C)c(C)c1S(=O)(=O)N1CCCC(C(=O)NC2CCCCC2)C1 (stereo not drawn)	15%
CCOc1cc2[nH]c(=S)n(CCN3CCCCC3CC)c(=O)c2cc1OCC (stereo not drawn)	23%
COCCNC(=O)c1ccccc1NC(=O)Nc1ccccc1	10%
CSc1nc(C)c(C(=O)Nc2ccccc2)c(C)c1C#N	0%
C=CC[C@H](CC(=O)NCCO)C(=O)NC[C@@H](OC(=O)[C@@H](CC=C)CC(=O)OC(C)(C)C)c1ccccc1	-1%
CCOc1ccc(C2CC(=O)Nc3c2c(=O)[nH]c2ncnn32)cc1 (stereo not drawn)	8%
COc1cccc(Cn2c(=O)c(CCc3ccccc3)nc3cnc(N4CCN(C)CC4)nc32)c1	?
CCC(C)(C(=O)NC1CCCCC1)N(C(=O)c1ccccn1)c1ccc(C)cc1 (stereo not drawn)	2%
O=C(c1ccc(CSc2nc3ccncc3[nH]2)cc1)N1CCCCC1	-9%
O=C(Nc1ccc(N2CCN(C(=O)c3ccccc3)CC2)c(Cl)c1)c1cccnc1	-4%
CC(C)CCNC(=S)Nc1ccc2nc3n(c(=O)c2c1)CCCCC3	-13%
CC(=O)N1CCN(Cc2nc3cc(NC(=O)c4ccc(Cl)cc4)ccc3n2C)CC1	-9%
Cc1nc2nc(SCC(N)=O)[nH]c2cc1Br	2%
CCc1nnc(NC(=O)CCNC(=O)c2ccco2)s1	-17%
COc1cc(Cl)c(NC(=O)c2cc(S(=O)(=O)N3CCOCC3)cn2C)c(OC)c1	10%
COc1cc2ccccc2cc1C(=O)Nc1ccc(C)cc1	-16%
O=C(COc1ccc(F)cc1)Nc1ccccc1C(=O)OCc1cc(=O)n2nc(C3CC3)sc2n1	11%
CCc1nn(C(C)C(=O)N2CCN(c3ccc(OC)cc3)CC2)c(=O)c2cc3occc3n12 (stereo not drawn)	-19%
COc1cc(CN2CCNC(=O)C2CC(=O)N(C)CCN2CCOCC2)cc(OC)c1 (stereo not drawn)	-1%
CC(C)OCCCn1c(SCC(=O)Nc2ccccc2C(F)(F)F)nc2nccnc2c1=O	-16%
Cc1cccc(NC(=O)c2ccc3[nH]c(=O)c(=O)[nH]c3c2)n1	-3%
Cc1ccc(SCC(=O)NCCCN2CCOCC2)cc1	14%
COc1ccc(CCNC(=O)c2ccc(CS(=O)Cc3ccc(Cl)cc3)o2)cc1OC (stereo not drawn)	-1%
N#Cc1ccc(C(=O)Nc2ccc(Cl)c(-c3nc4cc(Cl)ccc4o3)c2)c(F)c1	-9%
COc1ccc(C2NCCC3(O)CCCCC23)c(OC)c1OC (stereo not drawn)	16%
O=C(NCCCN1CCOCC1)/C(=C/c1ccco1)NC(=O)c1ccccc1	-3%
Cc1ccc(OCc2ccc(C(=O)NN)o2)c([N+](=O)[O-])c1	0%
O=C(NCCCn1ccnc1)c1cc(-c2cccnc2)nc2ccc(Br)cc12	-3%
CCC(C)[C@H]1CNCCN1CCC12CC3CC(CC(C3)C1)C2 (stereo partly drawn)	-8%
O=C(NCc1ccc2c(c1)OCO2)C1CCC(CNS(=O)(=O)c2ccc(Cl)cc2)CC1 (stereo not drawn)	8%
Cc1ccc(C(=O)NNC2=NC(C)(C)Cc3ccccc32)cc1	10%
c1ccc(N2CCN(Cc3cn4cccnc4n3)CC2)cc1	0%

Next section.
SMILES	VDR inh
O=S(=O)(NC1CCCCCCC1)c1ccccc1	-9%
CCOc1cc(C2Nc3ccccc3C(=O)N2Cc2ccco2)ccc1OCc1ccccc1Cl (stereo not drawn)	-27%
CCOC(=O)c1ccc(NC(=O)COC(=O)c2cccc(Oc3ccccc3)c2)cc1	2%
CC(=O)c1ccc(NC(=S)N2CCN(c3cccc(Cl)c3)CC2)cc1	0%
CCCCCC(=O)Nc1ccc(C(=O)CN2C(=O)NC3(CCCCCC3)C2=O)cc1	-10%
O=C(CCn1c(=O)c2cccn2c2cccnc21)NCc1cccc(Cl)c1	8%
CCOC(=O)/C(C#N)=C/c1c(N2CCN(c3ccc(OC)cc3)CC2)nc2c(C)cccn2c1=O	-1%
CCOc1ccc(NS(=O)(=O)c2ccc3c(c2)CCN3C(=O)C2CCC2)cc1	-6%
COc1ccccc1NC(=O)CSc1nncn1N	1%
CCOC(=O)c1ccc(NC(=O)CSC(=S)N2CCOCC2)cc1	-9%
CCS(=O)(=O)N1CCc2cc(C(=O)NCc3ccc(Cl)cc3)ccc21	8%
O=C1c2cc(O)cc(O)c2OC[C@@H]1c1ccc(O)c(O)c1	-2%
COc1ccccc1Nc1nc2ccc(C)cc2n2cnnc12	2%
O=C(O)Cn1c(SCCOc2ccccc2F)nc2ccccc21	-15%
Cc1ccc(S(=O)(=O)N2CCC(C(=O)NCCC3=CCCCC3)CC2)cc1C	4%
CC(OC(=O)C1=COCCO1)C(=O)c1ccc(C(C)(C)C)cc1 (stereo not drawn)	-2%
Nc1c(C(=O)NCc2ccco2)nnn1CC(=O)Nc1ccccc1	1%
COc1ccccc1/C=C/c1nc(C#N)c(N2CCCCCC2)o1	7%
O=C(Nc1ccc(N2CCCC2)cc1)c1ccc2ccccc2c1	-2%
O=C(NC1CCN(C(=S)NCc2ccco2)CC1)c1ccc(F)cc1	-5%
CCOC(=O)CN1C(=O)C(=O)c2cc(C)ccc21	6%
O=C(NC1CCCC1)C(c1ccccc1)N(C(=O)c1ccco1)C1CCCC1 (stereo not drawn)	5%
O=C(CSc1nncs1)Nc1ccc(Cl)cc1C(F)(F)F	-4%
CN(C)c1ccc(C2NC(=O)c3ccccc3N2)cc1 (stereo not drawn)	1%
O=C(NCc1ccccc1Cl)C1CCCN1S(=O)(=O)c1ccccc1F (stereo not drawn)	-7%

Three entries from above, as labelled records:
O=S(=O)(NC1CCCCCCC1)c1ccccc1
  VDR inh: -9%
CCOc1cc(C2Nc3ccccc3C(=O)N2Cc2ccco2)ccc1OCc1ccccc1Cl (stereo not drawn)
  VDR inh: -27%
CCOC(=O)c1ccc(NC(=O)COC(=O)c2cccc(Oc3ccccc3)c2)cc1
  VDR inh: 2%

Screens (PubChem BioAssay)
